# Screens: PubChem BioAssay, National Center for Advancing Translational Sciences (NCATS)
# D2 agonist = Beta-Arrestin HTS for Positive Allosteric Modulators of the Human D2 Dopamine Receptor: Agonists; D(2) dopamine receptor (Homo sapiens), P14416; DiscoveRx PathHunter D2 beta-arrestin, luminescence, 90 min; 100% = 57 uM dopamine signal; activation, % (test concentration not listed); 360,000 tested, 0.084% active; in the data active = activation above about 40%; inconclusive = about 15% to 40%; inactive = below about 15%; note: compound concentration not given in the record; the text of the record calls up to 30% inactive
# Target sequence (P14416 whole entry, looked up): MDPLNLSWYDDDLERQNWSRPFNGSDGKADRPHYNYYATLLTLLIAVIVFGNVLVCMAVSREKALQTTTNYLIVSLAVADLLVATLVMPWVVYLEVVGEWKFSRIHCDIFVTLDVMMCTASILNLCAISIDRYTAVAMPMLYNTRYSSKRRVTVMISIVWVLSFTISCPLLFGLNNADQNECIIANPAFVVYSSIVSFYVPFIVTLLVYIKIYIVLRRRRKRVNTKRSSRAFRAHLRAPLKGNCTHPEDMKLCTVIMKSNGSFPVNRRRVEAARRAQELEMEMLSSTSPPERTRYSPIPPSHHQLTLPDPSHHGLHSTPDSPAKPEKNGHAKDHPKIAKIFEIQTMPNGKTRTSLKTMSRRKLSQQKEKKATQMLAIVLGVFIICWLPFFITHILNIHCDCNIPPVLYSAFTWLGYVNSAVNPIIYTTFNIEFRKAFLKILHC
#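 DiscoveRx PathHunter D2 beta-arrestin cells (2,100/well) attached overnight, then compound-stimulated 90 min at 37 C in HBSS/10 mM HEPES/0.1% Tween-20 buffer; beta-galactosidase complementation read by luminescence after 1 h at ambient temperature. Dopamine 57 uM final (EC100) as control.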
# CtBP-E1A blk = qHTS Assay for Inhibitors of the CtBP/E1A Interaction. AID 651724, 2012. AlphaScreen GST-E1A/His-CtBP binding, 1536-well; active compounds read low; control for the full effect not named in the record. 340,000 tested, 0.49% active. activity change, % (concentration not given with the values); in the data active means activity change below about -65%; inconclusive means about -30% to -65%; inactive means above about -30%; note: % is set by controls: 0 for no effect and ±100 for the full control effect
#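 GST-E1A and His-tagged CtBP (125 nM each as 5X stock) were preincubated with pin-transferred compound for 2 h at 37 °C in the dark, then glutathione donor and nickel acceptor beads were added for 1 h before AlphaScreen reading.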
# Six1-Eya2 inh = qHTS Assay for Inhibitors of the Six1/Eya2 Interaction; Homeobox protein SIX1 (Homo sapiens) + Protein phosphatase EYA2 (Homo sapiens), …; AlphaScreen GST-Six1/His-Eya2 binding, biochemical; active compounds read low; control for the full effect not named in the record; activity change, % (no concentration beside the values); 360,000 tested, 0.56% active; in the data active = activity change below about -65%; inconclusive = about -30% to -65%; inactive = above about -30%; note: % is set by controls: 0 for no effect and ±100 for the full control effect
#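 AlphaScreen with GST-Six1 and His-Eya2 (5X mix: 250 nM and 500 nM), glutathione donor and nickel acceptor beads; buffer 50 mM Tris pH 8.0, 300 mM NaCl, 1 mM TCEP; 1 h at 37 C in the dark.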
# gsp agonist = qHTS for Agonist of gsp, the Etiologic Mutation Responsible for Fibrous Dysplasia/McCune-Albright Syndrome: qHTS; 340,000 tested, 0.13% active; Potency, µM (top dose mostly 76.9 µM), for inactives: at the highest dose activation (cAMP increase), actives largely listed as activators; gsp mutant cells, cAMP HTRF, 30 min; control for the full effect not named in the record; active = well fitted activation curve with a large enough effect; inconclusive = small, poorly fitted or top-dose-only effect, or another doubt; inactive = no such curve, though single readings can be large or run the other way; cell line not stated here;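 note: phosphodiesterase inhibitor Ro 20-1724 added with compounds to block cAMP breakdown; potency is the fitted concentration of half-maximal effect; nearly all actives have a fitted effect of over 60% in size; about a fifth of the inactives were tested at one dose only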
#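 Cells in DMEM/10% FBS with G418 were pretreated with compounds in DMSO plus […] (300 uM stock) for 30 min at 37C. cAMP was measured by HTRF (cAMP-d2 plus anti-cAMP antibody-K) after 30 min at room temperature.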
# D2 PAM = Beta-Arrestin HTS for Positive Allosteric Modulators of the Human D2 Dopamine Receptor: Potentiators. 360,000 tested, 0.23% active. AID 624464, 2012. D(2) dopamine receptor (Homo sapiens), P14416. potentiation, % (no concentration beside the values). DiscoveRx D2 beta-arrestin cells, luminescence, 90 min; 100% = 57 uM dopamine signal; active = potentiation of 50% or more; inconclusive = 30% to 50%; inactive = 30% or less;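 note: compound concentration not given in the record; tested on top of an EC20 dose of dopamine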
#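 D2 cells co-treated with compound plus 50 nM dopamine (EC20) for 90 min at 37 deg C to detect potentiation. Beta-arrestin recruitment was read as enzyme-fragment luminescence after 1 h at ambient temperature. Full response was set by 57 uM dopamine.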
# gsp antagonist = qHTS for Antagonists of gsp, the Etiologic Mutation Responsible for Fibrous Dysplasia/McCune-Albright Syndrome: qHTS; Potency, µM (top dose mostly 76.9 µM), without a hit: at the highest dose activity change, negative = inhibition, hits mostly inhibitors; AID 624288, 2012; 340,000 tested, 0.4% active; gsp-mutant cells, cAMP HTRF, 30 min; control for the full effect not named in the record; active = falling curve of any shape with a large fitted effect; inconclusive = falling curve, mostly with a smaller effect; inactive = flat or rising curve; cell line not stated here;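 note: intracellular cAMP measured with PDE inhibitor Ro 20-1724 present during compound exposure; potency is the fitted concentration of half-maximal effect; % is set by controls: 0 for no effect and ±100 for the full control effect; nearly all actives have a fitted effect of over 65% in size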
#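 Cells in G418 medium, seeded 16-24 h, 37C; buffer exchange to DPBS + 1 mM CaCl2, 0.5 mM MgCl2, 0.05% BSA; cpds in DMSO + […] (300 uM stock), 30 min 37C; HTRF cAMP detection.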
# An asterisk follows results filed as active; ? = inconclusive; nt = no result given; [ ] = dose if it differs, or a comment.
SMILES,D2 agonist,CtBP-E1A blk,Six1-Eya2 inh,gsp agonist,D2 PAM,gsp antagonist
OCCCCNCc1ccc(OCc2ccc(Cl)cc2Cl)cc1,-2.9,13.2,6.3,-27.3%,-19.0,17.4%
COCCn1c(SCC(=O)N2CCCCCC2)nc2c(c1=O)SCC2,-0.6,-3.5,6.8,-3.1%,-4.5,0.5%
O=C(Nc1sc2c(c1C(=O)O)CCCC2)c1ccc(F)cc1,-0.9,0.9,-1.2,?,-1.7,?
O=c1c(C(c2ccc(F)cc2)c2c(O)nc3n(c2=O)CCS3)c(O)nc2n1CCS2,-2.2,-5.6,-1.6,5.2%[15.4 µM],2.3,4.3%
COC(=O)c1ccc(Oc2cc(C)nc(SC)n2)cc1,-1.6,-1.3,4.2,-9.3%,3.3,20.8%
Cn1c(=O)c2[nH]c(NN=Cc3ccc(F)cc3)nc2n(C)c1=O,5.5,6.9,2.2,-80.0%[inhibitor],11.2,-22.1%
CC(C)(C)NC(=O)NC(=O)CSc1n[nH]c(-c2ccccc2Br)n1,-6.6,5.2,-1.1,15.6%[15.4 µM],4.8,-7.8%
CCc1ccc(N2CC(C(=O)Nc3ccc(S(=O)(=O)N4CCOCC4)cc3)CC2=O)cc1 (stereo not drawn),0.3,-3.0,1.4,-15.4%,23.6,-8.3%
COc1ccc(NC(=O)CN2CCc3ccccc3C2)cc1,4.4,nt,16.0,-27.9%,-51.7,8.0%
Cc1ccc(C(=O)NCCc2ccc(S(N)(=O)=O)cc2)cc1[N+](=O)[O-],-4.7,3.7,1.7,-37.3%,-1.4,11.9%
Cc1ccc(S(=O)(=O)N2CCCOC2CNC(=O)C(=O)NC2CCCCC2)cc1 (stereo not drawn),8.3,1.7,9.2,-0.5%[15.4 µM],1.6,6.1%
COCCCNC(=O)c1ccc(C(=O)NCCCOC)cc1,1.8,11.6,7.5,-26.2%,-4.9,9.6%
O=C(Nc1nnc(C2CC2)s1)c1cccnc1Oc1ccc(Cl)cc1,-4.5,nt,2.1,7.9%,-4.4,-13.0%
Cc1ccc(NC(=O)Cn2nnc(C(=O)Nc3ccc(C)c(C)c3)c2N)cc1,-0.5,-13.9,-1.1,-59.7%[inhibitor],-9.4,7.3%
O=C(Nc1nc(-c2cc(Cl)sc2Cl)cs1)c1ccc(Br)s1,-1.7,0.7,1.7,-3.0%,3.7,-34.3%
O=S(=O)(c1ccc2ccccc2c1)N1CCN(CCO)CC1,2.9,-21.0,10.0,-17.4%,-4.7,9.2%
CC(C)N(C(=O)CSc1nnc(-c2ccc3c(c2)OCO3)n1C)C(C)C,2.8,6.2,4.4,-0.7%,-8.1,2.7%
Cc1ccc(S(=O)(=O)NNC(=O)C2Cc3c(ccc4ccccc34)O2)cc1 (stereo not drawn),-1.4,1.4,4.2,-39.7%[inhibitor],-11.6,?
O=C(Nc1ccccc1Cl)C1CCCN1C(=O)OCc1ccccc1 (stereo not drawn),-2.1,3.3,4.7,23.0%,1.9,13.4%
Cc1cc(NC(=O)CSc2nnnn2-c2ccc(C)c(Cl)c2)no1,-6.4,-8.5,5.5,-26.3%,-12.8,-6.2%
O=C(NCCO)c1scc2c1OCCO2,-1.0,-0.4,9.2,6.6%,-11.5,5.5%
O=C(NCCC1=CCCCC1)C(=O)NCC1OCCCN1S(=O)(=O)c1ccc(F)cc1 (stereo not drawn),-0.8,2.8,1.9,-5.7%,-8.8,-4.4%
Cc1ccc(S(=O)(=O)N(C)C)cc1NC(=O)C(C)OC(=O)CC1CC2CCC1C2 (stereo not drawn),2.0,-5.4,25.4,?,-35.2,nt
COc1cc(/C=C/C(=O)OCC(=O)N2c3ccccc3NC(=O)C2(C)C)cc(OC)c1OC,5.4,24.1,11.4,-14.4%,25.0,-20.1%
Cc1ccc(-n2ncc3c(=O)n(CC(=O)NCc4ccco4)cnc32)cc1C,0.4,-0.1,5.3,16.8%,-5.2,2.9%
Cc1cc(C)cc(NC(=O)CN2C(=O)NC(C)(c3ccccc3)C2=O)c1 (stereo not drawn),0.8,-1.5,-0.9,-33.2%[inhibitor],-5.6,0.8%
c1ccc2oc(Cc3ccc(Cc4nc5ccccc5o4)cc3)nc2c1,1.3,-8.4,-5.9,31.4%,-1.6,-6.0%
CC(=O)Nc1ccc(S(=O)(=O)N2CCC(C(=O)NC3CC3)CC2)cc1,5.9,5.5,1.4,2.8%,-7.0,12.0%
O=c1cc(-c2cccc(F)c2)[nH]c2ccccc12,-2.5,-2.0,2.6,5.7%,-10.2,21.6%
Oc1ccc(Br)cc1-c1cc(-c2ccccc2F)[nH]n1,2.3,0.5,5.4,-1.5%,-5.6,-7.4%
O=C1CCC(=O)N1c1nc2nc(-c3ccccc3)cc(-c3ccccc3)n2n1,-1.7,-3.1,-6.3,27.9%,-0.7,-14.7%
COc1ccc(CCNC(=O)Cn2cnc3c(cnn3C(C)(C)C)c2=O)cc1OC,-3.3,-2.5,13.2,?,-8.9,-4.5%
COc1ccc2c(c1)c(C(C)=O)c(C)n2CCc1ccc(OC)c(OC)c1,-2.1,3.8,-1.0,0.5%,0.7,-16.6%
COc1ccc2nc(C)cc(N3CCN(S(=O)(=O)c4ccccc4F)CC3)c2c1,1.0,-2.0,-5.0,?,-1.7,?
CC(OC(=O)[C@H](C)NC(=O)c1ccccc1Cl)C(=O)NCc1ccc2c(c1)OCO2 (stereo partly drawn),-3.3,-2.3,-14.5,43.0%,-20.8,-9.7%
Cc1onc(-c2ccccc2Cl)c1C(=O)Nc1ccc(S(=O)(=O)N2CCCC2)cc1,-5.6,-11.3,-14.4,?,-8.2,-10.5%

# Full records, looked up by structure. Screens in order: D2 agonist	CtBP-E1A blk	Six1-Eya2 inh	gsp agonist	D2 PAM	gsp antagonist
# `OCCCCNCc1ccc(OCc2ccc(Cl)cc2Cl)cc1` in the list: -2.9	13.2	6.3	-27.3%	-19.0	17.4%
# `COC(=O)c1ccc(Oc2cc(C)nc(SC)n2)cc1` in the list: -1.6	-1.3	4.2	-9.3%	3.3	20.8%
# `O=c1c(C(c2ccc(F)cc2)c2c(O)nc3n(c2=O)CCS3)c(O)nc2n1CCS2` in the list: -2.2	-5.6	-1.6	5.2%[15.4 µM]	2.3	4.3%
# `CC(=O)Nc1ccc(S(=O)(=O)N2CCC(C(=O)NC3CC3)CC2)cc1` in the list: 5.9	5.5	1.4	2.8%	-7.0	12.0%

# The list continues.
SMILES,D2 agonist,CtBP-E1A blk,Six1-Eya2 inh,gsp agonist,D2 PAM,gsp antagonist
Cc1nnc(NC(=O)C(c2ccccc2)c2ccccc2)s1,-0.7,-0.7,5.3,-12.8%[15.4 µM],7.3,1.3%
CCCn1c(SCC(=O)NC2CCCC2)nnc1-c1ccccn1,-1.4,0.4,5.3,-16.7%,-7.6,-1.9%
Cc1cccc(C(=O)Nc2ccccc2C(=O)NCc2cccnc2)c1,-1.5,2.5,-1.4,-1.3%,-2.3,-2.4%
CCN(CC(=O)NCc1cccs1)C(=O)c1ccc(OC)c(S(=O)(=O)N2CCOCC2)c1,-4.6,6.9,-1.6,-72.4%[inhibitor],-12.9,9.6%
CCOC(=O)c1cnc2ncnn2c1N,1.4,nt,2.0,18.6%,-15.9,2.4%
Cc1ccccc1N1C(=O)c2cccc([N+](=O)[O-])c2C1=O,2.0,13.9,17.7,-26.4%[15.4 µM],13.7,-11.0%
Cn1c(SCc2ccc(Br)cc2)nc2ccccc2c1=O,4.2,7.4,28.2,-0.5%[15.4 µM],3.6,-12.2%
CC(=O)C1=C(O)C(=O)N(CCO)C1c1ccccc1 (stereo not drawn),-6.6,nt,-0.9,23.6%,2.8,-6.8%
CCn1c(SCc2nc3cc(OC)c(OC)cc3c(=O)[nH]2)nnc1-c1ccncc1,-0.6,-10.7,-2.9,10.4%,-7.3,6.8%
NC(=S)NC1CCS(=O)(=O)C1 (stereo not drawn),-6.1,-15.2,6.9,1.2%[15.4 µM],-17.2,nt
O=C(Nc1cccnc1)c1ccc(-c2ccccc2)cc1,-1.4,nt,-1.7,-9.1%,-8.2,-14.1%
CC(=O)N1N=C(c2ccc(C)cc2)OC1c1cccnc1 (stereo not drawn),-1.7,10.2,-4.5,-14.3%[15.4 µM],-6.2,-6.0%
CN1C(=O)N(C)C2C1N(CN1CCCCC1)C(=O)N2CN1CCCCC1 (stereo not drawn),1.2,4.1,-0.1,?,-11.4,-8.6%[15.4 µM]
CCN1C(=O)c2ccccc2Sc2ccc(C(=O)NCCCN3CCOCC3)cc21,-4.5,-1.2,10.8,-12.5%[15.4 µM],-4.3,9.7%
CCCCNC(=O)C1(C)CCCCN1Cc1ccc(-c2ccccc2)cc1 (stereo not drawn),-5.4,-16.1,12.2,nt,-19.6,nt
COc1ccc(C(CNS(=O)(=O)c2ccc(C)cc2)N2CCN(C)CC2)cc1 (stereo not drawn),-4.5,0.0,0.0,?,-33.3,13.7%
O=C(CN1CCCCC1)Nc1cccc(-n2cnnn2)c1,0.1,7.4,1.4,-15.6%,-17.2,8.2%
O=C(COC(=O)Cc1c(F)cccc1Cl)NCc1ccc2c(c1)OCO2,0.2,4.4,4.0,-24.1%,1.8,-7.2%
Cc1ccc(C(O)c2cccnc2)o1 (stereo not drawn),1.0,2.1,4.3,?,-6.4,9.4%
O=C(CCN1C(=O)c2cccnc2C1=O)NC1CCCCCC1,-1.7,-3.8,-16.7,?,-2.8,27.2%
COCc1ccc([C@@H]2C[C@H]3CN(Cc4ccccc4C)C(=O)[C@]34CCCN24)o1,-2.2,-0.5,2.9,7.0%,-11.5,2.6%
O=C(CN1CCOCC1)Nc1ccc(Br)cn1,-0.6,8.9,-0.3,-51.2%[inhibitor],-1.5,2.2%
Cc1c(C(=O)NC2CC(C)(C)NC(C)(C)C2)oc2c(Cl)cccc12,-4.6,1.3,-7.1,19.9%,-16.8,nt
O=C(Nc1cccnc1)c1cc(-c2cc(Cl)ccc2O)n[nH]1,3.6,nt,-14.0,-6.3%,-13.8,-12.7%
O=C(CSc1nccn(-c2ccc(F)c(F)c2)c1=O)NC1CCCC1,-0.5,7.9,2.9,-41.2%,-13.4,2.2%
CCCSc1ccc([C@@H]2[C@@H]3C(=O)N(CC)C(=O)[C@@H]3[C@]3(C(=O)OC)CCCCN23)cc1,0.2,-12.1,4.1,3.2%,-11.2,1.8%
